TRPV1 PAM: potentiators of human vanilloid receptor 1 (TRPV1) | Q8NER1 | TRPV1-expressing cells, Fluo-8 calcium influx, capsaicin EC20 potentiation; host cell line not named in the record; control for the full effect not named in the record | potentiation, % at 8.33 µM | 320,000 tested, 0.02% active; active means potentiation above 80%; inconclusive means 30% to 80%; inactive means below 30%; also: 0% is about no effect
Target sequence (Q8NER1 whole entry, looked up): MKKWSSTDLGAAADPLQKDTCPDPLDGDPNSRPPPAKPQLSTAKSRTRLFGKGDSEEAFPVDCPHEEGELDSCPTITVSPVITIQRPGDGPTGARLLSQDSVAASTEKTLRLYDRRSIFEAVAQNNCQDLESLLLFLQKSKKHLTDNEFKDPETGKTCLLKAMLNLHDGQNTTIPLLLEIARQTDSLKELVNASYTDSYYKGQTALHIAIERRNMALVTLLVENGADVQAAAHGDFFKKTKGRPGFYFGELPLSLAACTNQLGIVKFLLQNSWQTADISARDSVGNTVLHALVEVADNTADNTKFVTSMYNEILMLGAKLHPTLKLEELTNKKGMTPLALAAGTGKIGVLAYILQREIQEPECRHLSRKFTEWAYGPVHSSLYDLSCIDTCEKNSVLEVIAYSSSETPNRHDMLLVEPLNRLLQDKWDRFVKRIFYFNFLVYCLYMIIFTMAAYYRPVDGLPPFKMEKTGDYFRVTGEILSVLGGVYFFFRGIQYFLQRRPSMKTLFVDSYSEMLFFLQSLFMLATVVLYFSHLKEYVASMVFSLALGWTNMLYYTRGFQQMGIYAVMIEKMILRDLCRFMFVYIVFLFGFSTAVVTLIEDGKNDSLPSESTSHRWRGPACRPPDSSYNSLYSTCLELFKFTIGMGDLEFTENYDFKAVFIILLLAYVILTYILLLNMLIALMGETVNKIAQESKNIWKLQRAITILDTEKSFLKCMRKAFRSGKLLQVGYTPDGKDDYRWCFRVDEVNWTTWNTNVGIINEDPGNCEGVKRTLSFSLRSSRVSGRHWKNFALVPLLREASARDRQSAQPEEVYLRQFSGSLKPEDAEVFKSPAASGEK
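Fluo-8 calcium influx in TRPV1-expressing cells, kinetic read (ex 480/em 520 nm). Compound added and read 3 min for agonist activity, followed by capsaicin at EC20 final and 2 min further read for enhancement.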
PINK1 modulator: PINK1 expression modulation; PINK1 immunofluorescence, high-content cytometry, 24 h; Potency, µM (series often up to 76.6 µM), without a hit: at the highest dose activation (PINK1 increase), most hits filed as activators; 410,000 tested, 0.2% active; AID 624263; active = well fitted activation curve with a large enough effect; inconclusive = small, poorly fitted or top-dose-only effect; inactive = flat fitted curve, though single readings scatter; cell line not stated here;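 also: potency is read from the fitted curve at half-maximal effect; % of control where 0% means no effect; nearly all actives have a fitted effect of over 65% in size; a mitochondrial uncoupler was the plate control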
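PINK1 protein level read as immunofluorescence by microplate cytometer in a fixed, stained stable cell line after 24 h exposure to five compound concentrations, with CCCP as control.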
Menin-MLL FL inh: inhibitors of human menin-MLL interaction, wild-type MLL peptide; AID 1766; Fluorescence polarization, fluorescein-MLL peptide displacement from menin; 290,000 tested, under 10 active; FP activity change, % at 61.4 µM; inconclusive = falling polarisation curve, or a change in total fluorescence; inactive = total fluorescence flat and polarisation flat or rising; no compound was filed as active; the % refers to the polarisation; negative = inhibition;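 also: % of control where 0% means no effect; inhibitors lower the polarisation; unlabelled MLL peptide was the positive control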
Sfp inh: inhibitors of Bacillus subtilis Sfp phosphopantetheinyl transferase | Biochemical Sfp PPTase activity, qHTS | Q9F4F7 | 310,000 tested, 3.5% active | Potency, µM, inactives show max response, negative = inhibition, most hits filed as inhibitors; active = well fitted inhibition curve with a large enough effect; inconclusive = small, poorly fitted or top-dose-only effect, or another doubt; inactive = no such curve, though single readings can be large or run the other way;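 also: the enzyme is Sfp with the accession as filed and its product quenches rhodamine fluorescence; potency is read from the fitted curve at half-maximal effect; 0% = enzyme reaction without inhibitor and -100% = no enzyme wells; top concentration of the series not given in the record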
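Fluorescence-quenching assay: 15 nM Sfp-PPTase preincubated 15 min at room temperature with compound, then 5 uM rhodamine-CoA and 12.5 uM BHQ-2-labelled YbbR peptide added. Fluorescence (ex 525/em 598 nm) read at start and after 30 min; difference gives rate.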
TRPML1 inh: human mucolipin-1 channel inhibition; Q9GZU1; TRPML1-inducible cells, Ca2+ dye fluorescence, FDSS; active compounds read low; inhibition of EC80 agonist-evoked calcium signal; activity change, negative = inhibition, % (no concentration beside the values); 390,000 tested, 0.02% active; in the data active means activity change below about -50%; inconclusive means about -30% to -50%; inactive means above about -30%;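 also: stimulus is agonist 54-4 at its EC80 concentration; % is scaled to controls: 0 for no effect and ±100 for the full control effect; compound concentration not given in the record; the text of the record puts the active cut at -80%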
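Calcium fluorescence in TRPML1-DL cells induced overnight with Tet: a 110 s read after compound pin addition, then a 110 s antagonist read after challenge with 54-4 at 4 uM final (EC80).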
ClpP mod: qHTS Assay for Activators of ClpP; ATP-dependent Clp protease proteolytic subunit (Bacillus subtilis (strain 168)), P80244; purified B. subtilis ClpP, FRET peptide cleavage, 20 min; Potency, µM (doses to about 57.5 µM), without a hit: at the top dose activity change, negative = active; 340,000 tested, 1.9% active; active = well fitted falling curve with a large enough effect; inconclusive = small, poorly fitted or top-dose-only effect; inactive = no such curve, though single readings can be large or run the other way; also: potency is read from the fitted curve at half-maximal effect; the source files actives as falling curves though it sought activators and does not explain the sign; nearly all actives have a fitted effect of over 65% in size; many hits overshoot -100%
Target sequence (P80244 whole entry, looked up): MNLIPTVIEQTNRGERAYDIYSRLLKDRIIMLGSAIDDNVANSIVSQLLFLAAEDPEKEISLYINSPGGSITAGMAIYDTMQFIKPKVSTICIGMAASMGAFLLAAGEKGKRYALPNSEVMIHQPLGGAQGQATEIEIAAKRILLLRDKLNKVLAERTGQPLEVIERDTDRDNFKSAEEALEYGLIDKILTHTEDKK
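FRET quenching reversal measured ClpP activation: 10 microg/mL B. subtilis ClpP at pH 8 with the FRET-FV decapeptide, read at 430 nm after 320 nm excitation. The 20-min minus 0-min signal was scaled between DMSO/no-enzyme wells and ADEP (5.8 microM final).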
TRPML1 ag: human mucolipin-1 channel agonism; activation, % (test concentration not listed); TRPML1-expressing cells, Ca2+ dye fluorescence, FDSS; host cell line not named in the record; reference of the full effect not given here; AID 624414; Q9GZU1; 410,000 tested, 0.12% active; in the data active = activation above about 50%; inconclusive = about 30% to 50%; inactive = below about 30%; also: 0% is about no effect; the text of the record puts the active cut at 80%
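Agonist activity was taken from a 110 s kinetic Ca2+ dye read on the FDSS after pinning compounds onto TRPML1-DL cells. The cells were seeded at 1,500/well with Tet inducer, incubated about 16 h, then dye-loaded at room temperature.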
* hit, by the source's call; [ ] = another dose, or the depositor's remark.

COc1ccccc1-c1nnc(SCC(=O)NCc2cccs2)n1N was read as TRPV1 PAM 2, PINK1 modulator 0.5%, Menin-MLL FL inh 0.6, Sfp inh 7%, TRPML1 inh 13 and TRPML1 ag -0.1.
`COc1ccc(CCNC(=O)C2CCN(C(=O)c3ccc(Cl)cc3)CC2)cc1` gave TRPV1 PAM 3, PINK1 modulator 0.7%, Menin-MLL FL inh 0.4, Sfp inh 13%, TRPML1 inh 22 and TRPML1 ag 0.2.
Screening O=C1CN=CN=CN1c1ccc(Cl)cc1Cl returned TRPV1 PAM -2, PINK1 modulator -0.9%, Menin-MLL FL inh 5.3, Sfp inh 7%, TRPML1 inh -1, ClpP mod 0.3% and TRPML1 ag -0.3.
Screening Cc1ccnc(SCCn2c(N3CC(C)OC(C)C3)nc3c2c(=O)n(C)c(=O)n3C)n1 (configuration not stated) returned TRPV1 PAM 6, PINK1 modulator 0.1%, Menin-MLL FL inh -2.8, Sfp inh 16%, TRPML1 inh -17 and TRPML1 ag 1.6.
Screening O=C(c1ccc(S(=O)(=O)NCC2CCCO2)cc1)N1CCc2ccccc21 (configuration not stated) returned TRPV1 PAM 0, PINK1 modulator -1.3%, Menin-MLL FL inh -1.6, Sfp inh 8%, TRPML1 inh -2, ClpP mod 1.5% and TRPML1 ag 0.2.
`CCOC(=O)C1=NNC2(CC(=O)N(c3cccc(C)c3)C2=O)C1` (configuration not stated) gave TRPV1 PAM 0, PINK1 modulator -1.3%, Menin-MLL FL inh 1.9, Sfp inh 13%, TRPML1 inh -7, ClpP mod 0.9% and TRPML1 ag 3.4.
`CCCc1nnc(SCCSc2nnc(CCC)n2N)n1N` gave TRPV1 PAM 7, PINK1 modulator -2.9%[38.3 µM], Menin-MLL FL inh 0.2, Sfp inh 4%, TRPML1 inh 6, ClpP mod -1.0% and TRPML1 ag 0.0.
Cc1ccc(NC(=O)COC(=O)[C@@H]2CCCN2C(=O)c2cccs2)cc1S(=O)(=O)N(C)C was read as TRPV1 PAM 11, PINK1 modulator -2.0%, Menin-MLL FL inh 5.2, Sfp inh 2%, TRPML1 inh -9 and TRPML1 ag 4.1.
Screening O=c1c(-c2ccc(F)cc2)nc2cnc(Oc3ccccc3)nc2n1C[C@H]1CCCO1 returned PINK1 modulator 1.1%, Menin-MLL FL inh -5.0 and Sfp inh -19%.
`COc1cccc(/C=N/n2c(C3CCCCC3)n[nH]c2=S)c1` gave TRPV1 PAM 29, PINK1 modulator 0.0%, Menin-MLL FL inh 1.2, Sfp inh -20%, TRPML1 inh 16, ClpP mod 2.5% and TRPML1 ag 2.5.
Screening CC(Sc1nc(-c2ccccc2)c(C#N)c(=O)[nH]1)C(=O)Nc1ccc(F)cc1 (configuration not stated) returned PINK1 modulator 6.3%, TRPML1 inh -23, ClpP mod -2.4% and TRPML1 ag -0.4.
CCn1cc(CN2CCC(C(=O)Nc3cccc(-c4cccc(Cl)c4)c3)CC2)c(C)n1 was read as TRPV1 PAM 6, PINK1 modulator 3.5%, Menin-MLL FL inh -0.7, Sfp inh -16%, TRPML1 inh -2, ClpP mod -1.9% and TRPML1 ag 0.4.
Screening CCOc1ccc(S(=O)(=O)NCc2csc(C)n2)cc1 returned TRPV1 PAM 6, PINK1 modulator -2.3%[38.3 µM], Menin-MLL FL inh inconclusive, Sfp inh inconclusive, TRPML1 inh 3, ClpP mod 0.6% and TRPML1 ag 3.2.
Screening CCOC(=O)C1CCN(C(=O)c2cccnc2Oc2ccc(Cl)cc2)CC1 returned TRPV1 PAM -10, PINK1 modulator -0.9%, Menin-MLL FL inh -6.9, Sfp inh 19%, TRPML1 inh 23, ClpP mod 1.0% and TRPML1 ag 5.0.
COc1ccc(CCNC(=O)c2ccc3c(c2)sc2nc(-c4ccc(C)cc4)cn23)cc1OC was read as PINK1 modulator 0.0%, TRPML1 inh 14, ClpP mod 3.2µM* and TRPML1 ag 0.1.
Screening Cc1cc(C)cc(Oc2ccccc2/C=C\C(=O)O)c1 returned TRPV1 PAM 17, PINK1 modulator 1.0%, Menin-MLL FL inh 0.8, Sfp inh 22%, TRPML1 inh 6, ClpP mod 1.6% and TRPML1 ag 0.0.
For Cc1ccc(C)c(N2CCN(S(=O)(=O)c3cn(C)cn3)CC2)c1 the results were TRPV1 PAM -10, PINK1 modulator 0.6%, Menin-MLL FL inh -13, Sfp inh 9%, TRPML1 inh -6 and TRPML1 ag 0.3.
COc1ccc(C2CC(=O)Oc3c(C(CCN4CCCC(C)C4)c4cc(OC)c(OC)c(OC)c4)c(OC)cc(OC)c32)cc1 (configuration not stated) was read as Menin-MLL FL inh 5.1, Sfp inh -8%, TRPML1 inh -6 and TRPML1 ag 0.5.
Screening CCCc1cc(=O)[nH]c(SCC(=O)N2CCN(S(=O)(=O)c3ccc4ccccc4c3)CC2)n1 returned TRPV1 PAM 5, PINK1 modulator 7.1%, Menin-MLL FL inh 5.1, Sfp inh 17%, TRPML1 inh -10, ClpP mod -2.6% and TRPML1 ag 2.6.
O=C1NC(=Nc2cccc(O)c2)S/C1=C\c1cccnc1 was read as TRPV1 PAM inconclusive, PINK1 modulator 10%, Menin-MLL FL inh -0.3, Sfp inh 5%, TRPML1 inh 2 and TRPML1 ag 2.4.
Screening Cc1cccc(N2CCN(S(=O)(=O)c3ccc4c(c3)NC(=O)C(C)S4)CC2)c1C (configuration not stated) returned TRPV1 PAM 17, PINK1 modulator 3.0%, Menin-MLL FL inh -0.3, Sfp inh 9%, TRPML1 inh 40, ClpP mod -1.1% and TRPML1 ag 1.9.
For COc1ccc(-c2cnc3c(NC(C)=O)cc(-c4cccc(C(=O)N(C)C)c4)cn23)cc1OC the results were PINK1 modulator 5.3%, ClpP mod -10.0% and TRPML1 ag -0.9.
For Cc1ccc(NC(=O)CN2CCOCC2)cc1 the results were TRPV1 PAM 2, PINK1 modulator 0.7%, Menin-MLL FL inh 2.1, Sfp inh 18%, TRPML1 inh 5, ClpP mod -0.7% and TRPML1 ag -0.9.
`N#Cc1nc(COc2ccccc2Cl)oc1NCCc1ccccc1` gave PINK1 modulator 0.5%, TRPML1 inh 92, ClpP mod 6.5% and TRPML1 ag 0.5.
`COc1cccc(CN2CC34CC(c5ccc(C(C)=O)cc5)C(CC3S2(=O)=O)O4)c1` (configuration not stated) gave Menin-MLL FL inh -5.4, Sfp inh 6%, TRPML1 inh 0 and TRPML1 ag 1.8.
Cc1ccc(CNC(=O)[C@]2(C(F)(F)F)C[C@H](CCc3ccccc3)CCCO2)o1 was read as Menin-MLL FL inh 20, Sfp inh inconclusive, TRPML1 inh -7 and TRPML1 ag 0.5.
Screening C/C(=N\NC(=O)c1c(Cl)cnn1C)c1ccc(NC(=O)c2ccc(Br)o2)cc1 returned TRPV1 PAM 2, PINK1 modulator 5.7%, Sfp inh -14%, TRPML1 inh 5, ClpP mod 2.6% and TRPML1 ag -0.2.
Screening Cc1ccc(-c2cc3ccccc3nc2N)cc1 returned TRPV1 PAM 5, PINK1 modulator 4.0%, Menin-MLL FL inh -1.7, Sfp inh -8%, TRPML1 inh 41, ClpP mod 4.1% and TRPML1 ag 4.2.
`O=C(Nc1ccc2c(c1)CCC2)c1ncoc1-c1ccccc1F` gave TRPV1 PAM -14, PINK1 modulator 0.7%, Menin-MLL FL inh -2.0, Sfp inh 28%, TRPML1 inh -12 and TRPML1 ag 4.1.
Screening Cc1c(OCC(=O)N2CCC(C(N)=O)CC2)ccc2c3c(c(=O)oc12)CCCC3 returned TRPV1 PAM 15, PINK1 modulator 0.0%, Menin-MLL FL inh 4.5, Sfp inh 24% and ClpP mod 4.1%.

Quoted from the entries so far (2 entries):
Screening Cc1cc(C)cc(Oc2ccccc2/C=C\C(=O)O)c1 returned TRPV1 PAM 17, PINK1 modulator 1.0%, Menin-MLL FL inh 0.8, Sfp inh 22%, TRPML1 inh 6, ClpP mod 1.6% and TRPML1 ag 0.0.
For Cc1ccc(C)c(N2CCN(S(=O)(=O)c3cn(C)cn3)CC2)c1 the results were TRPV1 PAM -10, PINK1 modulator 0.6%, Menin-MLL FL inh -13, Sfp inh 9%, TRPML1 inh -6 and TRPML1 ag 0.3.

The results go on:
`COC(=O)c1ccc(CSc2nnc(NCc3ccccc3)s2)o1` gave TRPV1 PAM 4, PINK1 modulator 3.4%, Menin-MLL FL inh 2.0, Sfp inh 4%, TRPML1 inh 0, ClpP mod -5.6% and TRPML1 ag 0.6.
For Cc1ccc(SCc2c(-c3ccccc3)nn(C)c2Cl)cc1 the results were TRPV1 PAM -2, PINK1 modulator 1.5%, Menin-MLL FL inh 4.7, Sfp inh -18%, TRPML1 inh 27, ClpP mod -3.1% and TRPML1 ag 2.7.
COc1ccc(OCCCCn2c(C3CC(=O)N(c4cccc(Cl)c4)C3)nc3ccccc32)cc1 (configuration not stated) was read as PINK1 modulator 3.0%, TRPML1 inh 6, ClpP mod -11% and TRPML1 ag 2.2.
`CC(CCc1ccco1)NC(=O)c1cccc2c1C(=O)N(C1CCCCC1)C2` (configuration not stated) gave TRPV1 PAM -3, PINK1 modulator 12%, Menin-MLL FL inh -0.9, Sfp inh -27%, TRPML1 inh 77, ClpP mod 0.3% and TRPML1 ag 3.7.
CN(Cc1nc(CC2CC2)no1)CC12CC3CC(CC(C3)C1)C2 was read as TRPV1 PAM 7, PINK1 modulator 9.9%, Menin-MLL FL inh -6.9, Sfp inh 4%, TRPML1 inh -11 and TRPML1 ag 0.1.
COCCN(C(=O)CSc1nnc(C)n1-c1ccc(C)cc1)c1c(N)n(Cc2ccccc2)c(=O)[nH]c1=O was read as TRPV1 PAM 16, PINK1 modulator -2.5%, TRPML1 inh 28, ClpP mod -1.2% and TRPML1 ag 1.0.
For Cc1ccc(C(=O)N(C)CCOc2ccccc2)cc1S(=O)(=O)N1CCCCC1 the results were TRPV1 PAM -17, PINK1 modulator 1.1%, TRPML1 inh 6, ClpP mod 1.0% and TRPML1 ag -0.7.
Screening CCc1nc2ccc(C(=O)NCCNC(C)=O)cn2c1N(CCC(C)C)CCN(C)C returned PINK1 modulator 2.3%, ClpP mod -4.4% and TRPML1 ag -0.3.
For Cc1ccccc1-n1c(O)c(/C=C/C=Nc2ccccc2)c(=O)[nH]c1=O the results were TRPV1 PAM inconclusive, PINK1 modulator 8.6%, Sfp inh 19%, TRPML1 inh 3, ClpP mod 1.5% and TRPML1 ag 8.5.
